Ba CapD inh: Bacillus anthracis CapD inhibitors, primary screen, biochemical, fluorescence intensity; z-score (test concentration not listed); actives 0.23% (n = 140,000); AID 492967, 2010; purified CapD enzyme, fluorescence intensity read-out; stronger effect = lower value; some hits fall short of the stated cut;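 active = z-score under -4 in either of two replicates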;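 also: stock transfer was 100 nL into about 40 µL; score is relative to mean and spread of the plate; one replicate is shown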
AID504770: growth inhibition of E. coli YBA685, primary screen, V. cholerae RctB inhibitors; E. coli YBA685 rctB-dependent plasmid, OD600 growth, 3 h; stronger effect = lower value; z-score (no concentration beside the values); actives 0.27% (n = 130,000);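 active = z-score under -2 on both plates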;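 also: wells of about 30 µL received 100 nL stock; score is relative to mean and SD of the test wells; the first replicate is given; strong numbers were not always called active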
The depositor's hits bear a star; / = no result given; & = joins results of further samples.

Results follow in this order: AID504770	Ba CapD inh
> O=C(O/N=C/c1ccc2c(c1)OCO2)c1ccc(Cl)cc1Cl
  /	0.64
> O=C(c1ccc2c(=O)n(Cc3ccc4c(c3)OCO4)c(=S)[nH]c2c1)N1CCN(C2CCCCC2)CC1
  /	-1.4
> COc1ccc2c(c1)C(C)CC(C)(C)N2C(=O)Nc1ccc(Cl)cc1 (centres undefined)
  -0.9	0.01
> CCOc1cc(CNC(CC)CO)c(Br)cc1OCC(N)=O (centres undefined)
  -0.1	0.005
> CC(C)(C)c1ccc(S(=O)(=O)N2CCNC(=O)C2)cc1
  0.1	/
> CCOC(=O)C1(O)C(=O)Nc2cc(OC)cc(OC)c21 (centres undefined)
  /	-0.515
> Oc1nc(-c2ccc(Br)cc2)n2ccncc12
  0.25	/
> CSCCC(NS(=O)(=O)c1cccc2nsnc12)C(=O)O (centres undefined)
  /	-0.985
> O=C(O)CCC(=O)NCC1OCCc2ccccc21 (centres undefined)
  0.2	0.1
> CCN1CCC(NCCOC)CC1
  -0.15	0.24
> Cc1cc(C)c(CSc2nnc(C)s2)c(C)c1
  1.95	-0.25
> C/C(=N\O)c1cccc(Br)c1
  /	0.12
> CCCCCCC(=O)Nc1cccc(C(=O)N/N=C/c2cc(Br)ccc2OC)c1
  /	0.125
> COc1ccc(C(C)=O)cc1CSCC(=O)Nc1ccc(Cl)cc1
  /	-0.84
> CCCc1ccc(OCC(O)CNC(C)(C)C)cc1 (centres undefined)
  -0.25	-0.025
> O=C1CCCC2=C1C(c1cn[nH]c1-c1ccc(F)cc1)C1=C(CCCC1=O)O2
  /	-0.41
> O=C(NCC1CCCO1)c1ccc2nc(-c3ccccc3)c(-c3ccccc3)nc2c1 (centres undefined)
  0.55	3.95
> COc1ccccc1N1CCN(c2ccc3ccccc3n2)CC1
  -0.15	1.71
> CC(C)N(Cc1ccccc1)C(=O)Nc1ccc(C(F)(F)F)cc1
  -0.6	-0.685
> CCN(CC)c1nc(N)c(C#N)c(C(C#N)Cc2ccccc2)c1C#N (centres undefined)
  -0.6	/
> COc1cc(C(=O)Nc2ccc(N3CCOCC3)cc2)cc(CN2C(=O)c3ccccc3C2=O)c1OC
  0.85	/
> CCC(Sc1nnc2sc3ccccc3n12)C(=O)OC (centres undefined)
  -0.55	-0.33
> NNC(=O)c1cc(CSc2ccc(Cl)cc2)on1
  -0.7	10.5
> O=C(c1ccc(Cl)cc1Cl)N1CCCC1c1ccc(F)cc1 (centres undefined)
  -2.05	-0.035
> N#CCCSc1ccccc1NC(=O)c1ccc2ncsc2c1
  -0.25	/
> Cc1cccc(NC(=O)CN2C(=O)c3ccccc3S2(=O)=O)n1
  2.5	/
> COc1cc2c(cc1OC)C1=C(C#N)CCC(=NC(=O)c3ccco3)N1CC2
  0	-1.49
> COc1ccc(-c2nnc3n(CCc4ccccc4)c(=O)c4ccccc4n23)c(O)c1
  0.1	0.515
> Cc1cccc(C)c1Oc1ccc(C(F)(F)F)cc1[N+](=O)[O-]
  /	-0.865
> CCOC(=O)C(CC)Sc1nnc(-c2ccc(C)cc2)n1C (centres undefined)
  0.3	/
> CS(=O)(=O)c1ncc(CO)n1Cc1ccccc1
  -0.8	-0.445
> Cc1cccc2cc(CC3CC(c4ccccc4)=NN3C(=O)CCC(=O)O)c(Cl)nc12 (centres undefined)
  /	0.05
> CCOC(=O)c1cccc(Nc2nc(-c3ccccc3)no2)c1
  -0.4	0.37
> Cn1cc(SCC(=O)NCc2ccc3c(c2)OCO3)c2ccccc21
  0.75	/
> Cc1ccccc1NC(=O)CSc1nc2ccc(N)cc2s1
  1.5	-0.525
> CC(c1nnc(-c2ccccc2)o1)N1CCC(c2nc3ccccc3s2)CC1 (centres undefined)
  -0.25	/
> Cn1c(=O)c2c(nc(Sc3nnc(N)s3)n2C)n(C)c1=O
  -0.8	-3.12
> COC(=O)C1=C(N)N(c2ccc(S(N)(=O)=O)cc2)C2=C(C(=O)CCC2)C1c1cccc([N+](=O)[O-])c1 (centres undefined)
  /	-1.25
> N#Cc1cc(-c2cccc(Cl)c2)cn(Cc2c(Cl)cccc2Cl)c1=O
  /	0.09
> Cc1ccc(OCc2nc(-c3ccc(C(=O)N4CCc5ccccc54)cc3)oc2C)cc1
  0.9	-0.755
> CC(NC(=S)Nc1ccc(Oc2ccc(Cl)cc2)cc1)c1ccccc1 (centres undefined)
  /	-0.365
> O=S1(=O)CC(O)C(NC2CCNCC2)C1 (centres undefined)
  -0.35	0.54
> O=C(CSc1nnnn1C1CCCC1)N(c1ccccc1)C1CCCCC1
  -0.4	/
> O=S(=O)(c1ccc(F)cc1)N1CCSC1c1ccccc1 (centres undefined)
  0.5	-0.88
> CCC(=O)Nc1nc(C2CCCCC2)cs1
  1.25	0.26
> Cc1nn(C(=O)c2ccccc2)c2c1C(=O)CC(C)(C)C2
  -0.25	/
> CCN1CCN(C(=O)c2cc(Cl)nnc2Cl)CC1
  1	0.32
> COC(=O)c1cc(-c2cccc(OC)c2)on1
  -1.1	1.75
> CN(C)c1oc(-c2ccccc2F)nc1C#N
  0.15	77.3
> O=C1/C(=C/c2ccc(-c3ccc([N+](=O)[O-])cc3)o2)C=C(c2ccccc2)N1c1ccc(Br)cc1
  /	-0.555
> CCn1nnc2cc(C(=O)NC(C)c3ccc(Cl)cc3)ccc21 (centres undefined)
  -0.55	/
> CCOc1ccccc1NC(=O)c1sc2ncn(CC(=O)Nc3cccc(C(F)(F)F)c3)c(=O)c2c1C
  /	-1.4
> Cc1noc(NS(=O)(=O)c2ccc(N)cc2)c1C
  /	-0.19&7.07
> COc1ccc(-c2cn3cc(C)ccc3n2)cc1Br
  /	16.2
> O=C(CN(Cc1ccco1)S(=O)(=O)/C=C/c1ccccc1)Nc1ccc2c(c1)OCO2
  -1.1	/
> COCC(=O)NC(C)c1nc2ccccc2n1C (centres undefined)
  0.8	-0.28
> O=C(CSc1nccn1-c1ccccc1)Nc1ccc(OC(F)(F)F)cc1
  -0.5	-0.405
> CN(C)c1ccc(C2C(C#N)=C(N)N(c3ccc([N+](=O)[O-])cc3)C3=C2C(=O)CC(C)(C)C3)cc1 (centres undefined)
  /	-0.055
> O=C(Nc1cc2c3c(c1)C1CCCC1CN3CC1CCCC21)c1ccccc1 (centres undefined)
  /	6.24
> O=C1NC(=Nc2ccccc2)S/C1=C/c1ccc(F)c(Br)c1
  /	0.25

Single records (already shown). Screens in order: AID504770	Ba CapD inh
`CCn1nnc2cc(C(=O)NC(C)c3ccc(Cl)cc3)ccc21` (centres undefined) is entered as -0.55	/
`COc1ccc(-c2cn3cc(C)ccc3n2)cc1Br` is entered as /	16.2
`O=C(Nc1cc2c3c(c1)C1CCCC1CN3CC1CCCC21)c1ccccc1` (centres undefined) is entered as /	6.24

Next section:
Results follow in this order: AID504770	Ba CapD inh
> COC(=O)c1ccc(/C=C2/NC(=O)N(Cc3ccc(Br)cc3)C2=O)cc1
  0.1	1.68
> NC(N)=NN=C1CCC(=NN=C(N)N)CC1
  -0.4	0.155
> CCOC(=O)CSc1cc(-c2ccccc2)nc2ncnn12
  -0.05	1.11
> Cc1cc(OCc2nc(-c3ccncc3)no2)c(C)cc1Br
  -0.7	0.26
> N#CC(C#N)=C(NCc1ccc(Cl)nc1)Nc1ccccc1
  -0.45	0.055
> Cc1ccc2n1CCn1cc(-c3ccc(Br)cc3)cc1-2
  0.4	1.95
> CN1C/C(=C\c2ccc(C(F)(F)F)cc2)C2=NN(C)C(c3ccc(C(F)(F)F)cc3)C2C1 (centres undefined)
  -0.2	0.35
> O=C(NCCC1=CCCCC1)c1ccccc1CSc1ncn[nH]1
  -0.65	/
> COC(=O)c1ccc(C2NN=C(c3ccccc3)S2)cc1 (centres undefined)
  0.6	1.7
> O=C(Oc1ccc(NC2=NS(=O)(=O)c3ccccc32)cc1)c1ccccc1Br
  /	0.645
> O=C(OCC1CCCN(Cc2c(Cl)cccc2Cl)C1)N1CCN(c2cc(C(F)(F)F)ccn2)CC1 (centres undefined)
  /	0.085
> Cc1cc(=O)[nH]c(SCC(=O)c2ccc(O)c(O)c2)c1C#N
  -0.45	-0.615
> COc1cc2nc(N3CCN(c4cc(C)ccc4C)CC3)nc(N)c2cc1OC
  -0.3	71.1
> COC(=O)C1=CN(CCc2ccc(OC)cc2)C=C(C(=O)OC)C1c1ccsc1
  -0.2	70.8
> O=C1CCCCCN1Cc1nnc(Sc2ncnc3cc(-c4ccc(Cl)cc4)sc23)o1
  1.8	/
> CCc1cc(OC(F)F)ccc1Cl
  -0.35	/
> COC(=O)/C(O)=C/c1ccc(Cl)cc1
  1.15	/
> C=CCN1C(=O)/C(=C\N(C)C)S/C1=N/S(=O)(=O)c1cccs1
  -0.25	/
> CCN(CC)CCCOc1ccccc1-c1ccccc1
  0.1	/
> Cc1ccc(CCP(=O)(O)CN2CCCCC2)cn1
  -0.1	0.62
> Cc1csc(C(N)=O)c1Cl
  /	0.1
> CN1CCCC(OC(=O)c2cc(Br)ccc2Cl)C1 (centres undefined)
  -0.6	0.36
> CCc1ccc(NC(=O)c2cn(CC)c(=O)c3cc(OC)c(OC)cc23)cc1
  -1.05	-0.56
> Fc1ccc(Cn2c(-c3ccco3)nc3ccccc32)cc1
  -0.75	7.68
> Cn1cnc2cc(NCc3ccncc3)ccc21
  0.65	3.54
> O=C1NNC(c2ccccc2)C1c1ccccc1 (centres undefined)
  /	1.52
> OCCOc1ccccc1OCCO
  -0.7	-0.16
> COc1ccc(Br)cc1S(=O)(=O)Nc1ccc2cn[nH]c2c1
  -1.2	/
> COC(=O)/C(C#N)=C/c1ccccc1C
  2.1	-4.28*
> O=C(Nc1ccc(Cl)cc1)c1sc2ccccc2c1Cl
  0.85	1.08
> Cc1ccc(Cl)cc1NC(=O)COC(=O)C1CC1
  0.15	0.385
> CC1=CS(=O)(=O)CC1SC(=S)NC(C)C (centres undefined)
  -1.25	0.24
> O=C(NC(Nc1cccc2ccccc12)C(=O)c1ccccc1)c1ccco1 (centres undefined)
  0.5	0.14
> CC(C)(C)N(C(=O)c1cc2ccccc2o1)C(=O)N1CCCCC1
  1.3	/
> Fc1cc(OCc2cnc(Cl)s2)ccc1Cl
  0.8	0.1
> CC(Cc1ccccc1)N1C(=O)c2ccccc2C1=O (centres undefined)
  1.95	-0.32
> COc1cccc(C(=O)NCC(=O)N=Nc2c(O)n(Cc3ccc4c(c3)OCO4)c3ccccc23)c1
  0.5	-0.18
> Cc1cccc(CN2CCC(CNC(=O)c3cc4c(=O)[nH]c5ccc(C)cc5c4s3)CC2)c1
  -0.65	0.105
> CC(C)(C)/C(=N/O)c1ccccc1
  0.45	0.315
> CCSc1nnc(-c2ccco2)n1N
  0.15	0.65
> COC(=O)c1cc2sc3ccccc3c2s1
  -0.75	-0.1
> CC(C)CN1C(=O)C=CC1=O
  -1.15	/
> CSC(=CC(=O)c1ccc(Oc2ccccc2)cc1)SC
  -0.45	-0.4
> O=C(O)CCC12CC3CC(CC(Br)(C3)C1)C2
  -0.75	0.255
> O=C(O)C1C2C=CC(C2)C1C(=O)Nc1ccc2ccccc2c1 (centres undefined)
  -1.5	11
> CC1CCCC(NC(=O)c2ccccc2C(=O)O)C1C (centres undefined)
  -0.25	/
> CNC(=O)COC(=O)c1cc(-c2ccc(C)o2)nc2ccccc12
  -2.8	/
> C#CC(C)(CC)OC(=O)NC(=O)c1c(F)cccc1Cl (centres undefined)
  /	0.045
> CC(C)(C)OC(=O)C(CC(N)=O)NC(=O)c1cc(=O)n(-c2ccccc2)[nH]1 (centres undefined)
  /	-0.065
> COc1ccc2cc(/C(C)=N/OC(=O)c3cccs3)ccc2c1
  /	0.935
> Cn1c(SCC(=O)NC2CCCCC2)nc2sc3c(c2c1=O)CCCC3
  /	0.18
> Cc1c(C(=O)O)cnc2cc(-c3ccccc3)nn12
  0.45	1.27
> O=[N+]([O-])c1ccc(N2CCCCC2)cc1O
  /	-3.86
> COc1ccccc1CNC(=O)Cn1cnc2ccc(S(=O)(=O)N3CCC(C)CC3)cc2c1=O
  /	2.16
> Cc1cc(C)cc(COn2c(-c3ccccc3)nc3ccc(Cl)cc32)c1
  /	0.62
> CCOc1cc(/C=c2\sc3nc4ccccc4n3c2=O)ccc1OC(=O)c1ccccc1
  /	0.36
> CCOc1ccc(S(=O)(=O)Nc2cccc(-c3ccc4nncn4n3)c2)cc1
  0.55	/
> O=C(CNS(=O)(=O)c1ccc2c(c1)OCCO2)c1ccc(Cl)cc1
  -0.55	/
> Cc1cccc(NC(=O)c2ccn(C(=O)Oc3ccccc3)n2)n1
  -0.15	1.63
> O=C(c1cc(-c2ccccc2)on1)N1CCCCC1
  -0.55	/

In a second layout: results already given
compound: CCN(CC)CCCOc1ccccc1-c1ccccc1
  AID504770: 0.1
  Ba CapD inh: /
compound: Cc1nn(C(=O)c2ccccc2)c2c1C(=O)CC(C)(C)C2
  AID504770: -0.25
  Ba CapD inh: /
compound: Cc1cccc(CN2CCC(CNC(=O)c3cc4c(=O)[nH]c5ccc(C)cc5c4s3)CC2)c1
  AID504770: -0.65
  Ba CapD inh: 0.105
compound: O=C(CNS(=O)(=O)c1ccc2c(c1)OCCO2)c1ccc(Cl)cc1
  AID504770: -0.55
  Ba CapD inh: /

Next entries follow:
Results follow in this order: AID504770	Ba CapD inh
> COc1ccc(NC(=O)COC(=O)c2cc(=O)c3ccccc3o2)cc1
  -1.7	/
> O=S(=O)(Cc1ccccc1)Nc1ccccc1
  -0.2	0.39
> O=c1ccc(-c2ccc(S(=O)(=O)N3CCCC3)o2)n[nH]1
  0.85	2.14
> Cc1ccc(C)n1-c1cccc([N+](=O)[O-])c1
  /	0.385
> COc1ccc(CCNC(=O)c2sc3nc(C)nc(N4CCN(C)CC4)c3c2C)cc1OC
  /	0.8
> O=C(OCc1nc2ccccc2c(=O)[nH]1)c1cccs1
  -1.35	/

Screening results: PubChem BioAssay, ICCB-Longwood Screening Facility, Harvard Medical School

The list is partial; count on the stated rates, not on these rows.
